DUX4 txn inh = DUX4-mediated transcription inhibition; 293T-iDUX4 ZSCAN4-Gaussia luciferase reporter, 24 h; hits give low values; activity change, negative = inhibition, % (concentration not given with the values); 0.8% of 37,000 active; AID 1224904;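 active means -10% or lower and over 25 points stronger than a control reporter; inconclusive means -10% or lower with a smaller gap; inactive means above -10%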;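 further: 0% = median of neutral control wells and -100% = median of positive control wells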
DUX4 txn inh difference = further read-out of DUX4 txn inh, marked with its call; Gaussia minus Italica difference, %; measured here: selective DUX4 reporter inhibition;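 worked out from the two reporters; negative = selective loss of the DUX4 reporter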
DUX4 txn inh control = recorded beside DUX4 txn inh, whose call it bears; activity change, negative = inhibition, %; measured here: Italica tet-on control reporter;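 0 = neutral control and -100 = positive control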
* marks the source's active call; other numbers are inactive results; ? = inconclusive; . = no result given. This is a subset; the hit share may differ from the screen's.

molecule	DUX4 txn inh	DUX4 txn inh control	DUX4 txn inh difference
O=C(c1ccc(F)cc1)N1CC[C@@H]2[C@H](CO)Nc3ccc(C#Cc4ccccc4F)cc3[C@@H]21	-29.6*	-3.0*	-26.6*
COCC(=O)N1CC(=O)N2[C@@H](CO)[C@H](c3ccc(Br)cc3)[C@@H]2C1	-0.5	5.2	-5.6
C/C=C/c1ccc([C@H]2[C@@H](CO)N(C(=O)C3CCCC3)[C@H]2CNCC)cc1	-5.8	-2.0	-3.8
O=C(c1cnccn1)N1CC[C@@H]2[C@H](CO)Nc3ccc(-c4cccc(F)c4)cc3[C@@H]21	-9.0	-1.6	-7.5
CO[C@@H]1CN(C)C(=O)c2ccc(NC(=O)Nc3ccccc3F)cc2OC[C@H](C)N(C(C)=O)C[C@H]1C	0.5	-0.2	0.7
O=C(C[C@H]1C=C[C@H](NC(=O)CCN2CCCCC2)[C@@H](CO)O1)NCc1ccc(Cl)c(Cl)c1	-4.5	-3.1	-1.4
CN1C(=O)c2cc(NC(=O)Nc3cccc(Cl)c3)ccc2OC[C@H]2O[C@H](CC(=O)NCCc3ccncc3)CC[C@H]21	-3.1	-8.3	5.2
CN(C)CC#Cc1ccc([C@@H]2[C@@H](CO)N3CCCCN(CC4CCOCC4)C[C@@H]23)cc1	16.5	9.6	6.9

The results go on.
molecule	DUX4 txn inh	DUX4 txn inh control	DUX4 txn inh difference
CCCNC(=O)N1C[C@H](O)COC[C@@H]2O[C@H](CC(=O)N3CCCCC3)CC[C@H]21	7.8	5.9	1.9
CN(C)C(=O)C[C@H]1CC[C@H]2[C@@H](COC[C@@H](O)CN2C(=O)c2ccncc2)O1	6.5	2.2	4.3
COc1ccccc1C(=O)Nc1ccc2c(c1)C(=O)N(C)[C@@H]1CC[C@H](CC(=O)NCCc3ccncc3)O[C@H]1CO2	-0.9	0.3	-1.3
CN1C(=O)c2cc(NC(=O)Nc3ccc(Cl)cc3)ccc2OC[C@@H]2O[C@@H](CC(=O)NCCN3CCCCC3)CC[C@@H]21	1.9	3.2	-1.3
CCC(=O)N1[C@@H]2c3ccc(/C=C/c4ccccc4)c(=O)n3C[C@@H]2[C@@H](CO)[C@@H]1C(=O)OC	0.6	-1.6	2.3
CO[C@@H]1CN(C)C(=O)c2cc(NC(=O)C3CC3)ccc2OC[C@H](C)N(C(=O)NC(C)C)C[C@H]1C	6.1	7.2	-1.1
CCN1CC(=O)N2[C@@H](CO)[C@@H](c3ccc(Br)cc3)[C@@H]2C1	9.4	17.0	-7.6
CS(=O)(=O)N1CC2(C1)[C@H](c1ccccc1)[C@H](CO)N2C(=O)C1CCC1	2.2	1.4	0.9

Next part
molecule	DUX4 txn inh	DUX4 txn inh control	DUX4 txn inh difference
O=S(=O)(Cc1ccccc1)NCC[C@H]1CC[C@H](NS(=O)(=O)c2ccc(F)cc2)[C@@H](CO)O1	1.9	2.9	-1.0
CCC(=O)N1[C@H](CO)[C@@H](c2ccccc2)C12CN(Cc1nccs1)C2	2.2	1.1	1.2
CCCN(C)C[C@H]1OCCCC[C@H](C)Oc2ccc(N(C)C)cc2C(=O)N([C@@H](C)CO)C[C@H]1C	-1.9	0.6	-2.4
COc1ccc(NC(=O)N(C)C[C@@H]2Oc3ccc(NC(=O)Nc4cccc5ccccc45)cc3CC(=O)N([C@@H](C)CO)C[C@H]2C)cc1	0.0	0.8	-0.7
CC=Cc1ccc2n(c1=O)C[C@H]1[C@H](CO)[C@@H](C(=O)NC3CCCC3)[C@@H]2N1Cc1ccncc1 (mixture of isomers)	-0.9	-0.2	-0.7
COc1cccc(-c2ccc([C@@H]3[C@H](CO)N4CCCCN(C(=O)c5ccc6c(c5)OCO6)C[C@@H]34)cc2)c1	?	.	.
O=C(Cc1ccccn1)NCC[C@H]1CC[C@H](NC(=O)Nc2ccc(C(F)(F)F)cc2)[C@H](CO)O1	-4.2	-2.9	-1.3
CCC(=O)N(C)C[C@H]1Oc2cc(-c3ccccc3C)ccc2S(=O)(=O)N([C@@H](C)CO)C[C@@H]1C	0.1	-4.0	4.1

Later entries:
molecule	DUX4 txn inh	DUX4 txn inh control	DUX4 txn inh difference
CN(C)C(=O)C[C@H]1CC[C@H]2[C@H](COc3ccc(NC(=O)C4CCCCC4)cc3C(=O)N2C)O1	-1.4	-1.5	0.0
O=S(=O)(c1ccccc1)N1CC[C@@H]2[C@H](CO)Nc3ccc(C#CC4CCCCC4)cc3[C@@H]21	-1.7	-4.1	2.4
Cc1nn(C)cc1NC(=O)C[C@H]1CC[C@@H]2[C@H](COc3ccc(NC(=O)c4cccc(F)c4)cc3C(=O)N2C)O1	3.1	-1.1	4.2
CCCC(=O)N1CC2(C1)CN(C(C)=O)[C@@H](CO)c1c2c2ccc(OC)cc2n1C	4.5	4.2	0.3
CC(C)C#Cc1ccc([C@@H]2[C@@H](CO)N3C(=O)CN(C(=O)C4CCCCC4)C[C@@H]23)cc1	-8.5	1.3	-9.8
Cc1cccc(S(=O)(=O)N2CCCCN3[C@@H](CO)[C@@H](c4ccc(-c5ccncc5)cc4)[C@@H]3C2)c1	?	.	.
C[C@@H]1CN([C@H](C)CO)C(=O)Cc2cc(NC(=O)Cn3cnnn3)ccc2O[C@@H]1CN(C)CC1CCCCC1	-3.0	-4.2	1.2
CCCNC(=O)N(C)C[C@H]1Oc2ncc(C#CCc3ccccc3)cc2C(=O)N([C@@H](C)CO)C[C@H]1C	-1.4	-0.4	-1.0

Additional records follow:
molecule	DUX4 txn inh	DUX4 txn inh control	DUX4 txn inh difference
COc1ccc(NC(=O)N(C)C[C@H]2Oc3ccc(NS(=O)(=O)c4cccs4)cc3CC(=O)N([C@@H](C)CO)C[C@H]2C)cc1	-0.3	-1.8	1.5
Cc1ccc(S(=O)(=O)NCC[C@@H]2CC[C@@H](NC(=O)c3cccnc3)[C@H](CO)O2)cc1	-3.6	3.2	-6.8
CC(C)[C@@H](C)NC(=O)N(C)C[C@@H]1OCc2ccccc2-c2c(n(C)c3ccccc23)C(=O)N([C@H](C)CO)C[C@H]1C	6.1	-2.9	9.0
Cc1noc(C)c1NC(=O)N(C)C[C@H]1Oc2ccc(NC(=O)CCCN(C)C)cc2C(=O)N([C@H](C)CO)C[C@H]1C	1.1	3.3	-2.1
CO[C@H]1CN(C)C(=O)c2ccc(NC(=O)C3CCC3)cc2OC[C@H](C)NC[C@@H]1C	5.7	1.5	4.2
CC=Cc1ccc2n(c1=O)C[C@H]1[C@H](CO)[C@@H](C(=O)NCCOC)[C@@H]2N1Cc1ccccc1OC (mixture of isomers)	-9.3	5.5	-14.8
C[C@@H]1CN([C@H](C)CO)C(=O)c2cc(N(C)C)ccc2O[C@@H](C)CCCCO[C@@H]1CN(C)S(=O)(=O)c1cn(C)cn1	0.5	-0.9	1.4
C[C@@H]1CN([C@H](C)CO)C(=O)c2c(c3ccccc3n2C)-c2ccccc2CO[C@H]1CN(C)Cc1cccc(C(=O)O)c1	-1.9	6.3	-8.2

Entries of single compounds from above:
CO[C@H]1CN(C)C(=O)c2ccc(NC(=O)C3CCC3)cc2OC[C@H](C)NC[C@@H]1C is entered as DUX4 txn inh: 5.7; DUX4 txn inh control: 1.5; DUX4 txn inh difference: 4.2
C[C@@H]1CN([C@H](C)CO)C(=O)c2c(c3ccccc3n2C)-c2ccccc2CO[C@H]1CN(C)Cc1cccc(C(=O)O)c1 is entered as DUX4 txn inh: -1.9; DUX4 txn inh control: 6.3; DUX4 txn inh difference: -8.2

(continued)
molecule	DUX4 txn inh	DUX4 txn inh control	DUX4 txn inh difference
Cc1ccccc1S(=O)(=O)N(C)C[C@H]1OCc2cn(nn2)CCCC(=O)N([C@H](C)CO)C[C@@H]1C	6.9	3.6	3.3
COCC(=O)N1CC[C@@H]2[C@H](CO)Nc3ccc(-c4ccc(C(=O)N(C)C)cc4)cc3[C@@H]21	-1.0	5.3	-6.3
O=S(=O)(c1cccs1)N1CCCCN2[C@H](CO)[C@H](c3ccc(C4=CCCC4)cc3)[C@H]2C1	0.5	16.7	-16.2
CCCNC(=O)N1[C@H](C#N)[C@@H](c2ccc(-c3cccc(OC)c3)cc2)[C@H]1CO	1.1	2.1	-1.0
O=C(C[C@H]1CC[C@H]2[C@@H](COC[C@H](O)CN2S(=O)(=O)c2ccc(F)cc2)O1)N[C@H]1CCN(Cc2ccccc2)C1	7.0	5.7	1.3
C/C=C/c1ccc([C@H]2[C@H](CO)N(S(=O)(=O)Cc3ccccc3)C23CN(C(=O)C2CCCC2)C3)cc1	?	.	.
COc1ccc(NC(=O)N2C[C@H](O)COC[C@@H]3O[C@H](CC(=O)NCc4ccccc4OC)CC[C@H]32)cc1	5.7	0.9	4.7
CNC(=O)C[C@H]1CC[C@H]2[C@H](COc3ccc(NC(=O)NCc4ccccc4)cc3C(=O)N2C)O1	-2.1	4.0	-6.1

Later entries.
molecule	DUX4 txn inh	DUX4 txn inh control	DUX4 txn inh difference
COCC(=O)Nc1ccc2c(c1)[C@H]1C[C@@H](CC(=O)N3CCc4ccccc4C3)O[C@@H](CO)[C@H]1O2	1.8	3.5	-1.7
COCC(=O)N1CC2(CCN(C(=O)NC(C)C)CC2)c2c(n(C)c3cc(OC)ccc23)[C@H]1CO	8.8	7.9	0.9
O=C(Nc1cc(F)ccc1F)N[C@H]1CC[C@H](CC(=O)N2CCc3ccccc3C2)O[C@H]1CO	-5.2	-3.7	-1.6
N#C[C@@H]1[C@@H](c2ccccc2)[C@@H](CO)N1C(=O)C1CCCC1	-3.1	0.0	-3.1
COc1ccc(CN2C[C@H](O)COC[C@@H]3O[C@H](CC(=O)NCCN4CCCC4)CC[C@H]32)cc1	7.9	1.3	6.6
CC=Cc1ccc2n(c1=O)C[C@H]1[C@H](CO)[C@@H](C(=O)NC3CCC3)N(C(=O)C3CC3)[C@@H]21 (mixture of isomers)	4.8	3.8	1.0
CN(C)CC#Cc1ccc([C@@H]2[C@@H](CO)N3CCCCN(C(=O)C4CCC4)C[C@H]23)cc1	19.8	16.1	3.7
CO[C@H]1CN(C)C(=O)c2ccc(NC(C)=O)cc2OC[C@H](C)N(Cc2cccc(F)c2)C[C@@H]1C	12.6	9.0	3.7

Carrying on:
molecule	DUX4 txn inh	DUX4 txn inh control	DUX4 txn inh difference
O=C(NCC1CCCCC1)[C@H]1[C@H](CO)[C@H]2Cn3c(ccc(C4=CCCC4)c3=O)[C@@H]1N2	-1.7	-0.6	-1.0
COc1ccc(S(=O)(=O)N(C)C[C@H]2OCCCC[C@@H](C)Oc3ccc(NC(=O)Nc4cccc5ccccc45)cc3C(=O)N([C@H](C)CO)C[C@H]2C)cc1	-4.3	-3.2	-1.1
CO[C@@H]1CN(C)C(=O)c2cc(NC(=O)C3CCOCC3)ccc2OC[C@H](C)N(C(C)=O)C[C@@H]1C	8.4	2.0	6.4
N#C[C@@H]1[C@H](c2ccccc2-c2cccc(F)c2)[C@H](CO)N1S(=O)(=O)c1cccc(F)c1	-8.8	-8.0	-0.9
COc1ccccc1CNC(=O)C[C@@H]1C[C@@H]2c3cc(NC(=O)NC4CCCC4)ccc3O[C@@H]2[C@@H](CO)O1	6.6	11.5	-4.9
CCS(=O)(=O)N1CC(=O)N2[C@H](CO)[C@@H](c3ccc(-c4ccc(F)cc4)cc3)[C@H]2C1	2.3	9.5	-7.2
O=C(c1ccc(F)cc1)N1CC[C@H]2[C@H](CO)Nc3ccc(-c4ccccc4F)cc3[C@H]21	11.2	2.3	8.8
COc1cccc(NC(=O)N2C[C@@H](O)COC[C@H]3O[C@H](CC(=O)N(C)C)CC[C@@H]32)c1	4.0	2.7	1.3

Next section:
molecule	DUX4 txn inh	DUX4 txn inh control	DUX4 txn inh difference
O=S(=O)(c1ccccc1F)N1CCCCN2[C@@H](CO)[C@H](c3ccc(-c4cncnc4)cc3)[C@@H]2C1	13.5	19.5	-6.0
C[C@@H]1CCCCO[C@H](CN(C)Cc2ccc(C(F)(F)F)cc2)[C@@H](C)CN([C@H](C)CO)C(=O)c2cc(NC(=O)Nc3cccc4ccccc34)ccc2O1	-3.7	2.8	-6.4
CC(C)(C)S(=O)N1Cc2cc(C(=O)O)nc(-c3cccc(-c4cc5ccccc5o4)c3)c2[C@@H]1CCO (stereo partly specified)	-0.2	-1.5	1.3
CNC[C@@H]1OCCCC[C@H](C)Oc2ccc(NC(=O)Nc3c(C)noc3C)cc2C(=O)N([C@@H](C)CO)C[C@@H]1C	1.6	2.3	-0.6
CC(C)C#Cc1ccc([C@@H]2[C@@H](C#N)N(C(=O)C3CCC3)[C@@H]2CO)cc1	-7.3	-2.4	-4.9
CCCC(=O)N1CC2(CN(S(=O)(=O)CC)C2)c2c(n(C)c3cc(OC)ccc23)[C@H]1CO	14.9	10.9	3.9
C[C@H]1CN([C@@H](C)CO)C(=O)CCCn2nncc2CO[C@H]1CN(C)S(C)(=O)=O	-1.0	4.8	-5.7
N#C[C@@H]1[C@@H](c2ccccc2C2=CCCC2)[C@H](CO)N1C(=O)C1CCOCC1	12.4	4.2	8.2

Continuation.
molecule	DUX4 txn inh	DUX4 txn inh control	DUX4 txn inh difference
CCCNC(=O)N1C[C@H](C)[C@@H](OC)CN(C)C(=O)c2ccc(NC(=O)C3CCC3)cc2OC[C@@H]1C	4.6	0.0	4.6
CO[C@@H]1CC[C@H]2CCN(C)C(=O)C[C@H](c3ccccc3)CN(C)C(=O)c3cccc(C#N)c3OC[C@H]1O2	3.8	-20.2	24.0
COc1ccc(NC(=O)N(C)C[C@H]2OCc3ccccc3-c3ccccc3C(=O)N([C@H](C)CO)C[C@H]2C)c(OC)c1	-0.1	-1.4	1.3
COc1ccccc1CN(C)C[C@H]1OCc2cn(nn2)CCCC(=O)N([C@H](C)CO)C[C@H]1C	3.0	3.2	-0.3
CO[C@H]1CN(C)C(=O)c2cc(C#N)ccc2OC[C@H]2O[C@H](CC[C@H]2OC)CCN(C)C(=O)[C@H]1C	4.4	-1.1	5.4
CCCNC(=O)Nc1ccc2c(c1)OC[C@H](C)N(CC1CCCC1)C[C@@H](C)[C@@H](OC)CN(C)C2=O	-5.2	2.0	-7.2
